From PubChem BioAssay
Cruzain inh noDet = cruzain (T. cruzi) inhibition without detergent; P25779; purified cruzain, Z-FR-AMC fluorescence, no detergent; Potency, µM, for the others: max response, negative = inhibition, usual class: inhibitors; hit rate 2.3% among 200,000; AID 1476;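 further: plate controls were enzyme without inhibitor for no effect and buffer without enzyme for full effect; nearly all actives have a fitted effect of over 40% in size; top concentration of the series not given in the record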
Target sequence (P25779 123-467 limits assumed): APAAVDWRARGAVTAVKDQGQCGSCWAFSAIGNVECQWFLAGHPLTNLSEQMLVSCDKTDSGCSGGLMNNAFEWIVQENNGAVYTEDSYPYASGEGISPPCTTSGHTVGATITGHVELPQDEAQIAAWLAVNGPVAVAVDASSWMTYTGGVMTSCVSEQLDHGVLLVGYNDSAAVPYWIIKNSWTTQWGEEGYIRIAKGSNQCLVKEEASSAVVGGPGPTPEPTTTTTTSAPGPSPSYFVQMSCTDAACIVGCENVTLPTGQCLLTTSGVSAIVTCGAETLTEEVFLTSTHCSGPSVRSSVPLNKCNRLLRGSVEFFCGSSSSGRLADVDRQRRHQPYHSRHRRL
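Purified cruzain at 1.5 nM, pre-incubated 15 min with compound at room temperature in 100 mM sodium acetate pH 5.5, 5 mM DTT, 0.00005% Triton X-100. Reaction started with 2 uM Z-FR-AMC; AMC fluorescence increase over 60 s gives rate.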
Cruzain inh Det = inhibitors of Trypanosoma cruzi cruzain with detergent; P25779; purified cruzain, Z-FR-AMC fluorescence, 0.01% Triton; Potency, µM, for inactives: max response, negative = inhibition, most hits filed as inhibitors; hit rate 0.43% among 200,000;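 further: plate controls were neutral wells for no effect and buffer without enzyme for full effect; nearly all actives have a fitted effect of over 40% in size; top concentration of the series not given in the record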
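15 min RT preincubation of 1.5 nM cruzain with compound, then 2 uM Z-FR-AMC added; kinetic AMC fluorescence, 60 s delta. Triton X-100 0.01%, pH 5.5.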
SARS PLpro yeast = blocks SARS-CoV papain-like protease in a yeast assay. S. cerevisiae expressing SARS-CoV PLpro, growth rescue; control for the full effect not named in the record. Potency, µM (titrated, usually from 32.9 µM), for inactives: at the highest dose activity, positive = growth rescue. hit rate 0.19% among 330,000; active means well fitted rising curve with a large enough effect; inconclusive means small, poorly fitted or top-dose-only effect; inactive means no such curve, though single readings can be large or run the other way; further: 0% is about no effect; nearly all actives have a fitted effect of over 55% in size; growth read by luminescence after 48 h
2A StopGo = lowers the luciferase signal of an FMDV 2A StopGo reporter. human cells with a luciferase reporter of 2A StopGo recoding; control for the full effect not named in the record. Potency, µM (doses to about 57.9 µM), inactives show at the highest dose signal change, negative = less light. hit rate 1.2% among 410,000. AID 1159524; active = well fitted falling curve with a large enough effect; inconclusive = small, poorly fitted or top-dose-only effect; inactive = no such curve, though single readings can be large or run the other way; tested in HEK293T cells; further: on the % scale 0 is the no-effect control and ±100 the full control effect; nearly all actives have a fitted effect of over 45% in size; luciferase light after 4 h
Marburg entry inh = Marburg virus entry inhibition | Marburg virus pseudotyped entry inhibition, cell reporter; control for the full effect not named in the record; about a third of the inactives were read at about 46 µM | hit rate 1.8% among 300,000 | AID 540276 | Potency, µM (highest dose often 37.8 µM), inactives show at the highest dose activity change, negative = inhibition, most hits filed as inhibitors; active = well fitted inhibition curve with a large enough effect; inconclusive = small, poorly fitted or top-dose-only effect, or effect the other way; inactive = flat fitted curve, though single readings scatter; tested in HEK293 cells; about a fifth of its hits are not listed in these tables; further: on the % scale 0 is the no-effect control and ±100 the full control effect; luciferase read-out
RE007 growth inh = less growth of the S. pombe RE007 Vpr strain. S. pombe RE007 Vpr strain, BacTiter-Glo ATP luminescence, 24 h; control for the full effect not named in the record. Potency, µM (top dose mostly 92.2 µM), for inactives: top-dose activity change, negative = less growth. hit rate 0.21% among 360,000; active = well fitted falling curve with a large enough effect; inconclusive = small, poorly fitted or top-dose-only effect; inactive = no such curve, though single readings can be large or run the other way;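 further: on the % scale 0 is the no-effect control and ±100 the full control effect; nearly all actives have a fitted effect of over 50% in size; the assay follows cell death caused by Vpr and the record does not say whether a fall means rescue or toxicity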
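Fission yeast strain RE007, carrying one chromosomally integrated HIV-1 vpr copy, was seeded at OD 0.01 in PMG+AL medium with 23 nL pinned compound. After 24 h at 30 °C and 99% humidity, viability was read by BacTiter-Glo luminescence.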
NS1 function inh = influenza NS1 inhibition. S. cerevisiae slowed by influenza A NS1, growth recovery by OD600. Potency, µM (top dose mostly 46.1 µM), for the others: at the top dose activity, positive = more growth. hit rate 0.4% among 270,000. AID 2326; active means well fitted rising curve with a large enough effect; inconclusive means small, poorly fitted or top-dose-only effect; inactive means no such curve, though single readings can be large or run the other way; further: nearly all actives have a fitted effect of over 50% in size
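Growth recovery, yeast-based: influenza A NS1 expressed in S. cerevisiae causes slow growth, and suppressors are detected by OD600. The parent strain without NS1 is used as positive control.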
Lassa entry inh = inhibitors of Lassa virus binding or cell entry. Lassa virus pseudotype entry inhibition, cell reporter; control for the full effect not named in the record. Potency, µM (highest dose often 37.9 µM), inactives show at the top dose activity change, negative = inhibition, hits mostly inhibitors. hit rate 1.2% among 300,000. AID 540256; active means well fitted inhibition curve with a large enough effect; inconclusive means small, poorly fitted or top-dose-only effect, or effect the other way; inactive means flat fitted curve, though single readings scatter; tested in HEK293 cells; further: on the % scale 0 is the no-effect control and ±100 the full control effect; nearly all actives have a fitted effect of over 50% in size; luciferase read-out
The depositor's hits bear a star; ? = inconclusive; . = not tested or not shown; & = joins results of further samples; [ ] = remark or other dose. Unless noted, the call rests on the fitted dose curve; in most records, active means well fitted curve in the direction sought with a large enough effect; inconclusive means small, poorly fitted or top-dose-only effect, or another doubt; inactive means no such curve, though single readings can be large; an effect the other way counts as inactive or inconclusive. Potency means the concentration at half of the fitted maximal effect.

The first five entries (preview)
SMILES	Cruzain inh noDet	Cruzain inh Det	SARS PLpro yeast	2A StopGo	Marburg entry inh	RE007 growth inh	NS1 function inh	Lassa entry inh
Cc1cccc(N2CCN(C(=O)c3oc(=O)c4ccccc4c3-c3ccccc3)CC2)c1C	0%	-6.4%	.	-6%	0%[46.1 µM]	.	.	-4%[46.1 µM]
COc1cc(NC(=S)N2CCN(C/C=C/c3ccccc3)CC2)cc(OC)c1	-1%	-2.3%	14%	-27%	?	-9%	-7%	-17%
CCC(C)NC(=O)c1cc2c(=O)[nH]c3ccc(C)cc3c2s1 (stereo unspecified)	.	.	-2%	-10%	-21%[46.1 µM]	-9%	0%	-17%[46.1 µM]
Cc1cccc2c(SCC(N)=O)nc(-c3ccccc3)nc12	.	.	-4%	-2%	.	4%	-8%	.
CC(CCOC1=NS(=O)(=O)c2ccccc21)NC(=O)C(=O)Nc1ccccc1 (stereo unspecified)	.	.	0%	12%	.	4%	-8%	.

The whole of this part (from the top)
SMILES	Cruzain inh noDet	Cruzain inh Det	SARS PLpro yeast	2A StopGo	Marburg entry inh	RE007 growth inh	NS1 function inh	Lassa entry inh
Cc1cccc(N2CCN(C(=O)c3oc(=O)c4ccccc4c3-c3ccccc3)CC2)c1C	0%	-6.4%	.	-6%	0%[46.1 µM]	.	.	-4%[46.1 µM]
COc1cc(NC(=S)N2CCN(C/C=C/c3ccccc3)CC2)cc(OC)c1	-1%	-2.3%	14%	-27%	?	-9%	-7%	-17%
CCC(C)NC(=O)c1cc2c(=O)[nH]c3ccc(C)cc3c2s1 (stereo unspecified)	.	.	-2%	-10%	-21%[46.1 µM]	-9%	0%	-17%[46.1 µM]
Cc1cccc2c(SCC(N)=O)nc(-c3ccccc3)nc12	.	.	-4%	-2%	.	4%	-8%	.
CC(CCOC1=NS(=O)(=O)c2ccccc21)NC(=O)C(=O)Nc1ccccc1 (stereo unspecified)	.	.	0%	12%	.	4%	-8%	.
C/C(N)=C(/C#N)C(=O)COC(=O)c1cc(C)n(-c2ccc(F)cc2)c1C	?	-2.5%	-15%	27%&13%	2µM*	1%&22%	-5%	?
COc1ccc(NS(=O)(=O)c2cccc(C(=O)NCC(c3ccco3)N(C)C)c2)cc1 (stereo unspecified)	.	.	1%	-2%	3%	?	.	1%
Cc1ccc(C(=O)NNC(=O)c2ccc(S(=O)(=O)N3CCOCC3)cc2)cc1	.	.	4%	1%	-8%[46.1 µM]	?	16%	-6%
Cc1cccc(CSc2nnc(-c3ccccn3)n2N)c1	-7%	-2.2%	-8%	45%[activator]	4%	10%	-12%	9%
O=C(COc1ccc2ccccc2c1)NC1CC(=O)N(c2cccc(F)c2)C1 (stereo unspecified)	21%	-2.7%	.	-16%	.	.	.	2%[46.1 µM]
O=S(=O)(Nc1ccc(Cl)cc1)c1ccc(NS(=O)(=O)c2ccc3c(c2)OCCO3)cc1	4%	-12%	.	30%	-5%[46.1 µM]	.	.	-23%[46.1 µM]
CCCOc1c(Cl)cc(/C=N/O)cc1OCC	-2%	-10%	-40%	?	-18%	-27%	-168%	-1%
Cc1ccc(/C=C2/SC(=S)N(C3CCCCC3)C2=O)o1	.	.	0%	15%	0%[46.1 µM]	-4%	14%	11%
CCOc1ccc(C2C(C(=O)Nc3ccc(Cl)cc3)=C(C)Nc3nc(C(F)(F)F)nn32)cc1 (stereo unspecified)	4%	-4.4%	.	-6%	?	.	.	-12%[46.1 µM]
CCS(=O)(=O)N1CCC(C(=O)NCCCN2CCCC2)CC1	2%	2.5%	-1%	.	13%	9%	3%	18%
COc1ccccc1NC(=O)CCc1nnc2ccc(N3CCC4(CC3)OCCO4)nn12	.	.	5%	-10%	15%[46.1 µM]	11%	-1%	1%[46.1 µM]
COc1ccc(N2CCN(Cc3nc4c(c(=O)[nH]c(=O)n4C)n3CCCc3ccccc3)CC2)cc1	?	0.3%	-14%	-14%	5%&21%	8%	-10%	-47%[14.3 µM]
CCOc1ccc(/C=N/NC(=O)CSc2n[nH]c(=O)[nH]c2=O)cc1OC	.	.	0%	-20%	-22%[46.1 µM]	17%	.	-8%[46.1 µM]
Cc1cccc(C)c1OCC(=O)OC/C(O)=C(\C#N)c1nc2ccccc2[nH]1	?	-2.3%	-2%	-8%	4%	14%	18%	4%
CN(C)/C=C(/C(=O)c1ccccc1)S(=O)(=O)c1ccc(Cl)cc1	.	.	18%	19%	-29%[46.1 µM]	-12%	-2%	-27%
CC1=CC(C)(C)N2C(=O)C3(C(C#N)=C(N)Oc4cc(C)oc(=O)c43)c3cccc1c32 (stereo unspecified)	24%	-4.2%	-2%	-30%	-19%[46.1 µM]	-1%	-47%	9%
Cc1ccc(-c2csc(N3CCC[C@@H]3C(=O)NCCn3c(C(F)(F)F)nc4ccccc43)n2)cc1	.	.	-14%	?	.	-17%	-18%	.
C=CCn1c(=O)c2c3c(sc2n2c(Nc4ccccc4)nnc12)CCCC3	1%	-1.0%	5%	?	?	5%	-2%	?
COc1ccc(N2CC(NC(=O)c3ccco3)CC2=O)cc1OC (stereo unspecified)	9%	-0.1%	.	-13%	.	.	.	-2%[46.1 µM]
S=C1N(c2ccccc2)C(c2ccc(Br)cc2)N2CCCN12 (stereo unspecified)	.	.	-2%	-27%	-19%	21%	-2%	0%
CCN1C(=O)c2ccccc2Sc2ccc(NC(=O)c3ccc(C)c(F)c3)cc21	5%	-2.7%	.	?	.	.	.	?
CCc1ccc(S(=O)(=O)NC(=S)NC2CCCCC2)cc1	.	.	-2%	13%	12%[46.1 µM]	?	-78%	12%[46.1 µM]
CC(Oc1ccc(-c2ccccc2)c(F)c1)c1ccn(S(=O)(=O)c2ccc(Br)cc2)n1 (stereo unspecified)	?	10%	-6%	?	?	0%	17%	2%
Clc1ccc(-c2nc3ccc(Cl)cn3c2CN2CCCCC2)cc1	.	.	2%	-24%	?	0%	3%	-6%[46.1 µM]
CCOCCCNC(=O)c1ccc(OC2CCN(C(C)=O)CC2)c(OC)c1	.	.	4%	-5%	-11%	2%	1%	2%
CC(C)(C)OC(=O)N1CCC[C@H]1c1nnc(SCc2ccccc2F)o1	26%	0.3%	3%	1%	-11%	16%	-2%	-9%
COc1ccc(OCCSc2nnc(-c3ccc(OC)cc3)n2N)cc1	-7%	-1.0%	7%	-13%	-14%	8%	-9%	0%
C=CCn1c(SCn2nnc3ccccc3c2=O)nc2scc(-c3cccs3)c2c1=O	7.9µM*	3.8%	11%	.	-24%	5%	?	22%
CN1CCN(CCOc2cccc(Cl)c2)CC1	-5%	7.8%	3%	9%	7%	5%	11%	30%
Cn1ncc(Cl)c1C(=O)Nc1ccncc1	0%	0.5%	16%	4%	0%	0%	10%	-1%
Cc1cccc(-c2nc(SCC(=O)Nc3ccc4c(c3)OCO4)c(-c3ccccc3)[nH]2)c1	?	-2.2%	.	?	-14%[46.1 µM]	.	.	?
CCCCC1S/C(=N/N=C/c2ccc(OC)cc2)N(Cc2ccc(OC)cc2)C1=O (stereo unspecified)	-29%	3.6%	-1%	-9%	?	-4%	?	?
CCN(CC)c1cccc(OC(=O)c2cccnc2Cl)c1	.	.	3%	26%	-5%[46.1 µM]	-3%	-16%	.
COC(=O)COc1ccc2cc(-c3ccccc3)c(=O)oc2c1	.	.	3%	6%	.	-7%	-24%	.
CCN(c1ccccc1)S(=O)(=O)c1cc(NC(=O)COC(=O)C2CC2)ccc1Cl	.	.	-3%	-22%	-2%[46.1 µM]	-10%	.	?
Cc1ccnc(NC(=O)C2CCN(S(=O)(=O)c3ccc4c(c3)CC(C)N4C(=O)C3CCC3)CC2)c1 (stereo unspecified)	.	.	0%	?	?	-20%	-13%	?
Cn1c(SCC(=O)Nc2ccc(NC(=O)c3cccc(F)c3)cc2)nnc1-c1ccncc1	.	.	0%	12%	-16%	6%	0%	6%
c1ccc(CCNC2=NCCCS2)cc1	-2%	1.6%	-5%	-8%	1%	-13%	?	18%
CCCCc1c(C)nc2ccccc2c1SCCC(=O)O	.	.	1%	-12%	-1%	12%	.	1%
CC(=O)CCc1c(C)[nH]c2ccccc2c1=O	-12%	0.9%	-7%	18%	19%	-6%	-108%	9%
COc1ccc(C2CC(c3ccccc3)=NN2C(=O)COC(=O)c2cc(S(=O)(=O)N3CCOCC3)ccc2Cl)cc1 (stereo unspecified)	13µM*	0.7%	-13%	-17%	-24%&2%	-20%	10µM*	-1%&-1%
COCCn1c(=NC(=O)/C=C/c2cccs2)sc2cc(NC(C)=O)ccc21	5%	-4.8%	-10%	-19%	?	1%	6%	-9%
CC(=O)Nc1ccc(NC(=O)c2ccc(N(C)S(=O)(=O)c3ccc(C)cc3)cc2)cc1	.	.	3%	-22%	-21%	5%	3%	11%
O=C(c1cccc(-n2cccc2)c1)N1CCN(S(=O)(=O)c2c(F)cccc2F)CC1	.	.	-12%	-6%	.	12%	14%	.
CN(CCc1ccccn1)C(=S)Nc1ccc(Cl)cc1Cl	.	.	0%	47%[activator]	18%[46.1 µM]	7%	.	21%[46.1 µM]
COc1ccc(C(=O)Nc2ccc(NC(=O)c3ccccc3OC)nc2)cc1	.	.	-2%	?	?	-3%	-3%	-21%[46.1 µM]
COc1ccc(NC(=O)CCN2CCN(S(=O)(=O)c3cc(Cl)ccc3Cl)CC2)cc1	-7%	-0.5%	6%	.	-30%	?	-97%	0%
O=C(OCc1ccccn1)C1CCN(C(=O)c2ccc(Cl)cc2)CC1	.	.	-3%	1%	21%[46.1 µM]	-11%	.	-22%
C[C@H](NC(=O)OC(C)(C)C)c1nnc(SCC(=O)Nc2cccc(Cl)c2)o1	.	.	2%	-18%	.	15%	2%	.
